# Mac1 fbg inh = blocks human CD11b/CD18 adhesion to fibrinogen | P05107+P11215 | K562 CD11b/CD18 adhesion to fibrinogen, ATPlite luminescence; Mn2+ added to activate the integrin | inhibition, % at 10 µM | 0.54% of 93,000 active | AID 1497;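 active means primary inhibition of 50% or more at 10 µM, then 40% or more on retest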; further: some results filed as inactive read as strong as hits
# Pyk2 oligo antag = antagonists of human Pyk2 oligomerization; Q14289; Q293 cells, Pyk2 FERM NanoBiT luminescence; stronger effect = lower value; z-score (the deposit names both 25 µM and 10 µM); 0.83% of 99,000 active; AID 1347419;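 active means Z-score of -3 or lower, scaled per plate to the spread of control and sample wells; inactive means z-score above -3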;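 further: negative z-score means lost luminescence so less FERM oligomerization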
# Target sequence (Q14289 whole entry, looked up): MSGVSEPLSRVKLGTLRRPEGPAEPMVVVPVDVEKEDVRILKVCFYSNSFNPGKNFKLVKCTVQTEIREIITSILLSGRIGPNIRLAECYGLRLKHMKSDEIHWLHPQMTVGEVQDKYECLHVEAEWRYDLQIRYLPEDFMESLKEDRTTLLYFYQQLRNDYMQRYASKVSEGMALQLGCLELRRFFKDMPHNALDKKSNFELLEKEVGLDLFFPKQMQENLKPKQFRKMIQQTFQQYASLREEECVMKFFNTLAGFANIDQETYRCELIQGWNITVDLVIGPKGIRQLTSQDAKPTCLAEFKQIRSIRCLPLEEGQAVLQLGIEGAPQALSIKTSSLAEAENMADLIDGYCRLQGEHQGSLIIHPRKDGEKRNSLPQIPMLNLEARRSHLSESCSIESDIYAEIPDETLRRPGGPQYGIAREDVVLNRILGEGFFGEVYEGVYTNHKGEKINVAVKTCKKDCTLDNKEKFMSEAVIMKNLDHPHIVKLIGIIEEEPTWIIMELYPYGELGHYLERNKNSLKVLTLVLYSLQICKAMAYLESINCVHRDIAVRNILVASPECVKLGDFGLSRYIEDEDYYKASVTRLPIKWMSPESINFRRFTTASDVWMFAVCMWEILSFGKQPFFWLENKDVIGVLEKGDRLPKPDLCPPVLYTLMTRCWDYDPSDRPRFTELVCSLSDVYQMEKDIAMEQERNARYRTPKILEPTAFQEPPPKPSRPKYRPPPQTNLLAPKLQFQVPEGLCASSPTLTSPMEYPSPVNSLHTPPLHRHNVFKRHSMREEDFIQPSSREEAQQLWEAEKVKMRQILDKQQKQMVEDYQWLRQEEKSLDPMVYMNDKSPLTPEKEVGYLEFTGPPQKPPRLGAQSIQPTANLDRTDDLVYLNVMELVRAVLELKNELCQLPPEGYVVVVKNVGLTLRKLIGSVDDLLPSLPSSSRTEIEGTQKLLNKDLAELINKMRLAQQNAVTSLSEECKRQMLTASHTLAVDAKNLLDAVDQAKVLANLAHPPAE
# PLAP activator = activates human placental alkaline phosphatase; purified PLAP enzyme, luminescent substrate read-out; stronger effect = higher value; 1.2% of 96,000 active; P05187; activation fold at 20 µM; AID 696; in the data active means activation fold above about 2
# Mac1 fbg enh = CD11b/CD18-fibrinogen binding enhancement; P05107+P11215; K562 CD11b/CD18 adhesion to fibrinogen, ATPlite luminescence; activation, % at 10 µM; 0.07% of 93,000 active; AID 1499;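 active means 10 µM primary screen giving 50% or more activity, confirmed by 40% or more on retest at that dose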; further: strong numbers were not always called active; reference of the scale not given here
# MT1-MMP txn act = activates MT1-MMP transcription | HT1080 MT1-MMP promoter luciferase reporter, luminescence, overnight; stronger effect = higher value | activation factor at 10 µM | 0.16% of 86,000 active | AID 750;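 active means activation factor of at least 2 for MT1-MMP transcription at 10 µM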
# An asterisk follows results filed as active; x = not tested or not shown. An excerpt; count on the stated rates, not on these rows.
SMILES,Mac1 fbg inh,Pyk2 oligo antag,PLAP activator,Mac1 fbg enh,MT1-MMP txn act
CCOc1ccc(C(=O)CCNC(Cc2cnc[nH]2)C(=O)O)cc1 (stereo not given),13,1.4,1.8,-8,1.2
O=C(O)CCn1nnc(-c2cccs2)n1,16,0.97,1,-1,1.4
COc1ccc(C(=O)NC(=S)Nc2cccc(Cl)c2N2CCOCC2)cc1[N+](=O)[O-],5,-1,1,-1,x
Cc1cccc(OCC(=O)NC(=S)N2CCCc3ccccc32)c1,x,-0.04,1.2,x,x
CC1(C)CC(=O)C(C(C2=C(O)CC(C)(C)CC2=O)c2ccco2)C(=O)C1 (stereo not given),x,1.1,1.1,x,x
CCOC(=O)C1=C(C)N(Cc2ccccc2)C(=O)NC1c1ccc(OC)cc1 (stereo not given),x,-2.8,1,x,1
Cc1ccc2oc(-c3ccc(C)c(NC(=O)Cc4cccs4)c3)nc2c1,x,0.43,1.1,x,x
Cc1c(NC(=O)CCCOc2ccccc2)cccc1[N+](=O)[O-],11,2.1,1.1,5,x
CCOc1cc2[nH]c(=S)n(CCC(=O)N3CCc4ccccc4C3)c(=O)c2cc1OCC,x,0.58,1.2,x,0.9
Cc1ccc(C(=O)NC(=S)Nc2ccccc2C(F)(F)F)cc1C,x,-0.92,0.6,x,x
CCCCOc1ccc(C(=O)NCc2ccco2)cc1,x,-0.31,0.9,x,1.3
CCc1nc(N2CCC3(CC2)OCCO3)c2nnn(Cc3ccccc3Cl)c2n1,x,-0.57,1.1,x,x
COCCn1c(C)cc(C2=NNC(=Nc3ccc(F)cc3)SC2)c1C,13,-0.64,1.2,120*,1.8
Cc1ccc(S(=O)(=O)N/N=C\c2ccccc2OCc2ccccc2)cc1,x,-0.63,1,x,x
Cc1ccccc1-c1nnc(SCC(=O)NCc2ccc3c(c2)OCO3)n1C,8,0.49,0.9,2,1.3
COc1ccc(C2C(C(C)=O)=C(O)C(=O)N2CCCn2ccnc2)cc1 (stereo not given),x,0.49,1,x,x
O=C(OCC(=O)N1CCOCC1)c1ccc(Cl)nc1,-10,0.43,1.1,-1,1.1
CCc1ccc2nc(NC(=O)c3cc(C)on3)sc2c1,x,-1.6,1.1,x,1.3
NC(=S)Nc1cc2ccccc2c2ccccc12,x,0.23,0.8,x,x
O=C(C1CCC(=O)N1Cc1ccccc1Cl)N1CCN(c2cccc(Cl)c2)CC1 (stereo not given),7,0.63,1.5,-1,1.1
COc1ccc(-c2nsc3c(N4CCCCC4)ncnc23)cc1,x,0.35,1.1,x,x
CCC(Sc1ccc2nnc(-c3ccc(F)cc3)n2n1)C(=O)O (stereo not given),x,0.96,0.9,x,1.1
Cc1ccccc1C(=O)c1c[nH]c(C(=O)NCc2ccco2)c1,-12,0.2,1,4,x
CCOc1ccccc1Nc1nc(-c2sc(NC(=O)c3cccc(Cl)c3)nc2C)cs1,23,x,1,3,x
Cc1cccc(OCCCCCn2ccnc2)c1,x,0.02,0.7,x,x

# Filtered by structure, the compounds so far with an NH in an aromatic ring (3)
SMILES,Mac1 fbg inh,Pyk2 oligo antag,PLAP activator,Mac1 fbg enh,MT1-MMP txn act
CCOc1ccc(C(=O)CCNC(Cc2cnc[nH]2)C(=O)O)cc1 (stereo not given),13,1.4,1.8,-8,1.2
CCOc1cc2[nH]c(=S)n(CCC(=O)N3CCc4ccccc4C3)c(=O)c2cc1OCC,x,0.58,1.2,x,0.9
Cc1ccccc1C(=O)c1c[nH]c(C(=O)NCc2ccco2)c1,-12,0.2,1,4,x

# Additional entries.
SMILES,Mac1 fbg inh,Pyk2 oligo antag,PLAP activator,Mac1 fbg enh,MT1-MMP txn act
COC(=O)c1ccc(OCC2c3cc(OC)c(OC)cc3CCN2C(=O)c2ccco2)cc1 (stereo not given),-1,-2,1.1,-1,1.1
O=C(CC(=O)NC1CCCCC1)N/N=C/c1ccc(Cl)cc1,x,-0.87,1,x,x
COc1ccc(C(=O)c2ccc(N(C)C)cc2)c(OC)c1,8,-0.77,1,20,x
CCCSc1nnc2n(N)c(=O)c3ccccc3n12,x,0.3,0.8,x,0.9
Cc1cc(NC(=O)COC(=O)c2ccc(NS(=O)(=O)c3ccc(C)c(C)c3)cc2)no1,x,-0.07,1,x,1
CCn1c(SCc2ccc([N+](=O)[O-])cc2)nnc1C(C)NC(=O)c1ccccc1Br (stereo not given),x,0.76,0.9,x,x
COc1ccc(C2C(C(=O)N3CCOCC3)c3ccccc3C(=O)N2c2ccc(OC)cc2)cc1 (stereo not given),2,-0.79,1.4,-4,1.1
COc1ccc(S(=O)(=O)N2CCCN(CC(=O)C(C)(C)C)CC2)cc1,x,0.64,1.3,x,0.9
Cc1cccc(-c2nnc(NC(=O)c3ccc(Cl)cc3)o2)c1,-2,0.45,1,-1,1.2
O=C(N/N=C/c1ccc(Cl)cc1Cl)c1cccc(F)c1,x,-1.5,0.9,x,x
COc1ccc(N2CCN(C(=O)c3ccc(OCc4c(C)noc4C)c(OC)c3)CC2)cc1,9,1.1,1,-2,1.1
Cc1ccc(S(=O)(=O)N2CCC(=O)N2)cc1,x,1.9,1.2,x,x
COc1ccc(C(=O)Nc2cc3c(cc2OC)CCCC3)cc1Br,x,-0.5,1,x,x
CCOC(=O)c1cc2c(=O)n3cccc(C)c3nc2n(Cc2ccco2)c1=NC(=O)c1cccnc1,38,0.57,1.5,-2,1
COc1ccc(C(=O)c2oc3nc(C)cc(C)c3c2N)cc1,7,-1.1,0.9,-2,1.4
N#CC(c1ccccn1)(c1ncc(C(F)(F)F)cc1Cl)N1CCOCC1 (stereo not given),x,0.59,1.1,x,x
COc1ccc(/C=N/n2c(C)nnc2C)c(OC)c1OC,x,0.25,1.3,x,1
Cc1cc(C)c(S(=O)(=O)NCC23C=CC(O2)C2C(=O)N(c4ccccc4)C(=O)C23)c(C)c1 (stereo not given),x,0.21,1.2,x,x
Cc1ccc(N2CCN(C(=O)c3ccccc3NC(=O)/C=C\C(=O)O)CC2)cc1,2,-0.23,1.2,-4,x
O=C(Nc1cccc(C(=O)N2CCOCC2)c1)c1cccnc1,-25,2.3,1,-3,0.9
C/C(=N\NC(=O)Cc1ccccc1)c1cccs1,0,1.1,1.1,18,x
Cc1ccc(-c2noc(/C=C/c3ccccc3)n2)cc1,x,-0.13,0.9,x,x
CC/C(=N/Nc1ccccc1)c1cnnc(SC)n1,-7,-0.59,0.9,8,x
CCc1ccccc1NC(=O)C(C)n1nc([N+](=O)[O-])c(Br)c1C (stereo not given),x,0.64,0.9,x,x
CCOC(=O)C1=C(O)C(=O)N(c2ccc(S(N)(=O)=O)cc2)C1c1ccc(OC)cc1 (stereo not given),4,0.35,0.9,6,x
SMILES,Mac1 fbg inh,Pyk2 oligo antag,PLAP activator,Mac1 fbg enh,MT1-MMP txn act
CCNc1nc(Oc2ccc(=O)n(-c3ccccc3)n2)nc(N(C)C)n1,8,0.38,1.2,0,1.1
COc1cc(C(=O)Oc2ccc3c(c2)OCC3=O)cc(OC)c1OC,x,-0.47,1.1,x,1.1
CC(=O)c1c(C)[nH]c(C(=O)OCC(=O)N(C)C)c1C,x,0.96,1.3,x,1.1
CC(=O)Nc1ccnc(-c2cccnc2)n1,x,0.12,1,x,x
CC1CCN(C(=O)CN(C)S(=O)(=O)c2cccc3nsnc23)CC1,x,0.18,1.1,x,1.3
Cc1cc(=O)oc2cc(OCC(=O)Nc3nnc(CC(C)C)s3)ccc12,x,-1.5,0.9,x,1.2
Oc1ccc(C(=S)N2CCCCCC2)cc1,x,0.27,0.9,x,1.1
O=C(CSc1nc2nc(-c3cccs3)cc(C(F)(F)F)c2c(=O)[nH]1)NCc1ccco1,4,-1.1,1.1,-6,1.1
Cc1cccc(CSc2nnc(NC(=O)c3ccco3)s2)c1,x,-0.79,0.9,x,1
NC(=O)CN1C(=O)C2C3c4ccccc4C(c4ccccc43)C2C1=O (stereo not given),x,-0.82,1,x,1
COc1cc(CN2CCN(C(=O)CC(C)C)CC2)cc(OC)c1OC,x,1.3,1.2,x,1
COC(=O)c1cc(NC(=O)/C=C/c2ccc3c(c2)OCO3)cc(C(=O)OC)c1,x,-1.4,0.9,x,x
NC(=O)c1ccccc1NC(=O)/C=C/c1cccc(Cl)c1,x,-3.2*,0.9,x,x
CCCCC[n+]1ccn(-c2nc3ccccc3nc2[N-]S(=O)(=O)c2ccc(C)cc2)c1,x,0.17,1.2,x,1
CCOC(=O)Nc1sc(C(=O)N(C)C)c(C)c1C(=O)OCC,7,-1.2,1.3,-1,1
COc1ccc(CCNC(=O)C2CCCN(Cc3nc(-c4cccc(Cl)c4)oc3C)C2)cc1OC (stereo not given),x,-0.66,1.2,x,1.1
O=C(NCCN1CCOCC1)c1ccc(Cl)cc1[N+](=O)[O-],x,-0.55,0.8,x,x
CCCCn1c(SCC(N)=O)nc2ccc(N3CCOCC3)cc2c1=O,x,-0.13,1,x,x
c1ccc(-c2ccc3c(c2)c2c4n3CCN=C4CCC2)cc1,-2,-1.2,1.5,-1,1.1
CCCCCOCC(O)CCC(=O)NN (stereo not given),x,1.2,0.8,x,x
O=C(CCS(=O)(=O)c1ccc(Br)cc1)N1CCN(c2ccccc2F)CC1,-14,2.7,0.8,-3,1.2
CC(C)c1ccc(N=c2c([N+](=O)[O-])nn(-c3ccc4c(c3)OCCO4)n2O)cc1,x,-4*,1,x,x
O=C(Nc1ccccc1Cl)c1ccn[nH]1,x,0.16,1,x,1.3
COC(=O)c1cn(CC(=O)N2CCCCC2C)c2ccccc12 (stereo not given),x,1.5,1,x,1
COc1ccc(NC(=O)N2CCC(C(=O)c3ccc(F)cc3)CC2)cc1,x,-0.19,0.8,x,1.1

# Of the compounds above, 4 contain a COOH group.
SMILES,Mac1 fbg inh,Pyk2 oligo antag,PLAP activator,Mac1 fbg enh,MT1-MMP txn act
CCOc1ccc(C(=O)CCNC(Cc2cnc[nH]2)C(=O)O)cc1 (stereo not given),13,1.4,1.8,-8,1.2
O=C(O)CCn1nnc(-c2cccs2)n1,16,0.97,1,-1,1.4
CCC(Sc1ccc2nnc(-c3ccc(F)cc3)n2n1)C(=O)O (stereo not given),x,0.96,0.9,x,1.1
Cc1ccc(N2CCN(C(=O)c3ccccc3NC(=O)/C=C\C(=O)O)CC2)cc1,2,-0.23,1.2,-4,x

# One compound at a time (already shown):
# O=C(CCS(=O)(=O)c1ccc(Br)cc1)N1CCN(c2ccccc2F)CC1 across the screens: Mac1 fbg inh = -14; Pyk2 oligo antag = 2.7; PLAP activator = 0.8; Mac1 fbg enh = -3; MT1-MMP txn act = 1.2
# COC(=O)c1cc(NC(=O)/C=C/c2ccc3c(c2)OCO3)cc(C(=O)OC)c1 across the screens: Mac1 fbg inh = x; Pyk2 oligo antag = -1.4; PLAP activator = 0.9; Mac1 fbg enh = x; MT1-MMP txn act = x

# Later entries
SMILES,Mac1 fbg inh,Pyk2 oligo antag,PLAP activator,Mac1 fbg enh,MT1-MMP txn act
Cc1ccc(-n2nc(-c3ccc(N)cc3)cc2N)cc1,-16,x,1.1,0,1.2
CCc1cc(=O)oc2cc(OCC(=O)N3CCCc4ccccc43)ccc12,x,-2.2,0.8,x,1.2
COc1ccc(Br)cc1C(=O)Nc1ccc(Cc2ccncc2)cc1,x,-1.7,0.7,x,x
C[C@H](NC(=O)Cn1cncn1)c1ccccc1,x,0.13,0.9,x,x
COc1ccc(Oc2coc3cc(OC(=O)c4cccs4)ccc3c2=O)cc1,2,-0.65,1,-1,x
COc1ccc2nc(C)cc(SCC(=O)Nc3c(C)cc(C)cc3C)c2c1,x,-0.18,1.2,x,x
O=C(O)C1C2C=CC(C2)C1C(=O)N1CCN(C/C=C/c2ccccc2)CC1 (stereo not given),x,0.86,1,x,1.1
Cc1c(OCC(F)(F)F)ccnc1CSc1nc2ccccc2[nH]1,x,0.14,0.9,x,1.6
CC(NC(=O)C(=O)NN=C1CCCCCC1)c1ccccc1 (stereo not given),x,-0.12,1.3,x,x
CN(NC(=O)NN)c1ncc(C(F)(F)F)cc1Cl,x,1.1,0.8,x,x
COc1ccc2oc(-c3ccc(C)c(NC(=O)CSc4ccc(Cl)cc4)c3)nc2c1,9,0.32,1,1,x
